NPYLR7 agonist – activates Aedes aegypti NPYLR7 receptor | 0.15% of 270,000 active | activation, % at 10 µM | AID 1259423 | HEK293T NPYLR7/Galpha15, GCaMP6s calcium fluorescence; in the data active = activation above about 40%;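 also: 0% = vehicle and 100% = reference agonist at the receptor; some compounds past the cut are filed as inactive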
NPYLR7 agonist max-min – recorded beside NPYLR7 agonist, whose call it bears; activation, %; measured here: Max-Min RFU normalised activation; some inactives read as strong as hits;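 span of the calcium signal over five minutes; 0% = vehicle and 100% = native peptide agonist; compound fluorescence can raise it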
Starred values were filed as active, the others as inactive; & = joins results of further samples. Only part of the results is shown, so the mix of outcomes need not match the whole.

compound	NPYLR7 agonist	NPYLR7 agonist max-min
COc1ccccc1CCC(=O)N1CCc2nnc(C3CCCO3)n2CC1 (stereo not drawn)	1	-4
CCOC(=O)C1(CCc2ccccc2)CCN(C(=O)COc2ccccc2OC)CC1	-2	-1
O=C1CCCN1CCCNc1nc(-c2ccncc2)nc2c1CCNC2	-2	-7
CNC(=O)c1nc(CN2CCCC(Nc3ccc(C(C)C)cc3)C2)no1 (stereo not drawn)	4	2
Cc1cc2ccccc2n1CCC(=O)NCc1cncn1CC(C)C	10	1
N#Cc1ccc(-n2nc(-c3ccccc3)cc2NC(=O)c2cc(Cl)ccc2F)cc1	16	7
Cc1nc2ccccn2c(=O)c1NC(=O)CC1CCCC1	3	1
CCOCCn1cc(C2CCN(C(=O)COc3ccccc3)CC2)c2ccccc21	12	21
Cc1cc(F)ccc1NCC(=O)N1CCN(S(=O)(=O)c2ccc3c(c2)CCC3)CC1	19	12
COc1cc2c(cc1CN1CC(c3ccncc3)C1)OCO2	0	-4
CC(=O)c1cccc(-c2ccc(F)cn2)c1	-4	-8
CC(C)(C)c1csc(CN2CCN(S(=O)(=O)CCN3C(=O)CCCC3=O)CC2)n1	-22	-24
CC1=NN(c2ccc(C(=O)NC(C)c3cc(C)oc3C)cc2)CC1 (stereo not drawn)	-18	-18
c1cnn(-c2ccc(CN3C[C@@H]4[C@@H]5CC[C@@H](C5)[C@@H]4C3)cc2)c1	1	0
CCCCC(O)CN1CCc2nc(Cc3ccccc3C)[nH]c(=O)c2C1 (stereo not drawn)	6	15
N#Cc1ccc(CSc2ncn[nH]2)cc1	1	1
Cc1ccc2c(c1)C(=O)N(CCCC(=O)Nc1ncccc1C)C2=O	5	3
CNc1ncc(CN(C)C(=O)c2cccc(Cn3cccn3)c2)cn1	2	0
NC(=O)C1CCN(CCCc2nc(-c3ccccc3)no2)CC1	12	9
CCOC(=O)c1ccc(OC2CC3CCC(C2)N3C(=O)c2ccc(CSc3cccc(C(F)(F)F)c3)cc2)cc1 (stereo not drawn)	24	22
CCOc1cc(C)c(Cl)cc1S(=O)(=O)Nc1cccc2cn[nH]c12	3	10
CC(=O)C(Sc1ccc2nnc(-c3cccnc3)n2n1)=C(C)O	-5	-6
COc1ccc(C(C2Sc3ncnn3C2=O)N2CC(C)OC(C)C2)cc1OC (stereo not drawn)	0	2
CN(Cc1ccc2nccnc2c1)Cc1cc2n(n1)CCNC2	10	8
CCN(CC)CCCC(C)NC(=O)CSc1nc(Cl)cc(N2CCN(C(=O)C(C)(C)C)C(C)C2)n1 (stereo not drawn)	-2	3
Cc1cccc(OCCN2CCCCC2CO)c1C (stereo not drawn)	-5	-9
Cc1ccc(-c2csc(NC(=O)/C=C/c3ccc(F)cc3)n2)cc1	9	9
COC(=O)c1cc(OC)ccc1NC(=O)Cc1c(C)nn(C(F)F)c1C	11	7
CC1=CC2=NC(C(F)(F)F)(C(F)(F)F)N=C(c3ccccc3)N2C=C1	1	-1
Cn1c(-c2cccs2)n[nH]c1=S	3	5

Brought forward from above: 6 compounds, then new ones.
compound	NPYLR7 agonist	NPYLR7 agonist max-min
CCN(CC)CCCC(C)NC(=O)CSc1nc(Cl)cc(N2CCN(C(=O)C(C)(C)C)C(C)C2)n1 (stereo not drawn)	-2	3
Cc1cccc(OCCN2CCCCC2CO)c1C (stereo not drawn)	-5	-9
Cc1ccc(-c2csc(NC(=O)/C=C/c3ccc(F)cc3)n2)cc1	9	9
COC(=O)c1cc(OC)ccc1NC(=O)Cc1c(C)nn(C(F)F)c1C	11	7
CC1=CC2=NC(C(F)(F)F)(C(F)(F)F)N=C(c3ccccc3)N2C=C1	1	-1
Cn1c(-c2cccs2)n[nH]c1=S	3	5
COc1ccccc1NC(=O)N1CCC2(CC1)C(=O)N(CC(=O)NCc1ccccc1)CN2c1ccccc1	-6	6
COc1cc(OC)cc(C(=O)Nc2nc3ccc(F)cc3s2)c1	-1	-7
CCOC(=O)c1cnn(Cc2nc(-c3sccc3C)oc2C)c1	-5	-5
CCOC(=O)C(Oc1ccc2c(c1)O/C(=C\c1ccc(OC)c(OC)c1OC)C2=O)c1ccccc1 (stereo not drawn)	-9	-11
Cc1ccc2nc(C3CCN(C(=O)c4cn(CCN5CCOCC5)nn4)CC3)[nH]c2c1	15	5
c1coc(CCn2ccnc2-c2ccccc2Cn2cccn2)c1	9	2
CCN1C(=S)NC(c2ccc(N)cc2)C(C(=O)OC)=C1C (stereo not drawn)	-4	1
Cc1ccc2c(Cl)cc(Cl)c(OCC#N)c2n1	7	12
COc1cn(CC(=O)Nc2cc(C)cc(C)c2)c(CSc2nccc(C)n2)cc1=O	-4	-7
O=S(=O)(c1cccc(CNc2ccccn2)c1)N1CCCCC1	14&3	11&2
O=C(Nc1ccc(F)c(F)c1F)N1CCN(C(c2ccccc2)c2ccc(Br)cc2)CC1 (stereo not drawn)	22	11
COc1ccc(/C=C2\C(=O)N(c3ccc(S(N)(=O)=O)cc3)N=C2C)cc1	-9	-11
O=C(CSc1nnc(CNC(=O)c2ccc(S(=O)(=O)N3CCCC3)cc2)n1-c1ccc(F)cc1)Nc1nccs1	4	12
COc1cccc(C(=O)NC(C(=O)N2CCCCC2)C2CCN(C(=O)c3cccc(F)c3)CC2)c1 (stereo not drawn)	12	9
CCN1C(=O)N(C2Cc3ccccc3C2)C(=O)C12CCN(Cc1cnc(-c3ccccc3)s1)CC2	10	-4
CN(Cc1ccncc1)C(=O)NCC(=O)N1CCc2ccccc2C1	7	4
Cc1sc2ncnc(SCC(=O)c3cc(C)n(CC4CCCO4)c3C)c2c1C (stereo not drawn)	-5	-9
CCCNC(=O)Nc1cccc(C)c1-c1nc2cc(Cl)ccc2o1	-1	4
CCc1ccc(NC(=O)N2CCC3(CC2)SCCN3C(=O)c2ccccc2F)cc1	-3	-3
CCN(CC)C(=O)Cn1cc(C(=O)N2CCCCC2CCn2cccn2)nn1 (stereo not drawn)	5	2
COc1cc(C2c3[nH]c4ccccc4c3CCN2C(=O)CCCN2CCCC2=O)ccc1F (stereo not drawn)	6	10
CCC(=O)N1c2ccccc2N=C2CC(C)(C)CC(=O)C2C1c1ccccc1F (stereo not drawn)	8	5
CCC1CN(Cc2ccc3c(c2)OCCO3)Cc2cc(OC)ccc2O1 (stereo not drawn)	18	8
CCOC(=O)/C=C/c1c(C)c(C#N)c(=O)n(C)c1Cl	2	1
COC(=O)c1scc(-c2ccc(C)cc2)c1S(=O)(=O)N1CC=C(c2ccccc2)CC1	9	7
Cc1cncc(C(=O)NCCc2nnc3n2CCNCC3)c1	3	1
Cc1nccn1-c1ccc(CNC(=O)[C@@H]2CCCCN2)cc1	0	7
Cc1c(Cl)cccc1-n1cc[nH]c1=S	-4	-4
CC(Oc1ccc(F)cc1F)C(=O)N1CCC2(CCCO2)CC1 (stereo not drawn)	-4	-3
O=C(c1ccc(F)cc1)N1CCN(c2nc(-c3ccccc3Cl)nc3cc(Cl)ccc23)CC1	20	31
Cc1nc2ccc(C(=O)N3CCN(C(=O)c4ccco4)CC3)cn2c1N(C)C(=O)CCc1ccccc1	-3	18
Cc1nn(C)c(C)c1CCNC(C)CC1CCCCCN1C(=O)OC(C)(C)C (stereo not drawn)	13	9
Cc1ccccc1NC(=O)Cn1nc2ccc(SC3CCCCC3)nn2c1=O	2	0
CCc1ccc(C(=O)N2CCSC2c2ccc(C)cc2C)cc1 (stereo not drawn)	3	8
Cc1nc(Nc2ccc(NC(=O)Nc3ccccc3C)cc2)cc(-n2cccn2)n1	-4	-9
Cc1cc(C)cc(NCCn2c(C)c(C)n3c4c(=O)n(C)c(=O)n(C)c4nc23)c1	5	6
Cc1ccc2cc(CN3CCN(CCn4cncn4)CC3)c(=O)[nH]c2c1	3	2
c1coc(CNc2nc3nonc3nc2N2CCSCC2)c1	-1	-5
CCc1cccc2c(C(CC(=O)N(CCC#N)Cc3cccnc3)c3cccc([N+](=O)[O-])c3)c[nH]c12 (stereo not drawn)	9	15
O=C(NCCc1cccs1)c1ccccc1N1CCC(NC(=O)C2CCCC2)CC1	-6	-3
O=C(NCc1cccnc1Oc1ccc(F)c(F)c1)C1(c2ccccc2)CC1	0	1
O=C(C=Cc1ccc2c(c1)OCO2)n1ccnc1	4	2
CC(C)C(C(=O)NNC(=O)c1ccc(-n2cnnn2)cc1)N(C)C (stereo not drawn)	0	14
CC(=O)c1ccc(NC(=O)CC2SC(=NC3CC3)NC2=O)cc1 (stereo not drawn)	3	5
Cn1ccnc1C(O)C1CCN(Cc2cc3n(n2)CCNC3)CC1 (stereo not drawn)	6	2
Cc1c(C(=O)CSc2n[nH]c(=O)n2C2CC2)sc2ccccc12	2	0
CC(=O)NC(c1ccccc1)(c1ccccc1)C(F)(F)F	-2	-2
CC(=O)c1[nH]c(C)c(C(=O)N2CC(OCc3ccccc3F)C2)c1C	-4	-5
CN(C)N=CC=C1CCC(=Cc2ccc(Br)cc2)C1=O	5	4
CC(C)Cc1cc(CNC(=O)c2cc3ccccc3oc2=O)no1	-1	-10
CCOC(=O)c1cc([C@@H](C)CCC=C(C)C)sc1NC(=O)c1ccccc1C(F)(F)F	11	1
CCOc1ccc(-c2nc(N(CC)Cc3ccccc3)c3ccccc3n2)cc1	-3	4
Cc1nn(-c2ccccc2)c(C)c1CNC(=O)C1CCN(S(=O)(=O)c2ccccc2)CC1	-2	-4
N#Cc1ccsc1C(=O)N1CCC2(CCCCC2)C1	4	4
CCOC(=O)c1cc(C(C)(C)C)n(C2CCN(C(=O)c3cccs3)CC2)n1	17	11
COC(=O)C(OC(=O)c1ccc(=O)n(C)c1)c1cccc(Cl)c1 (stereo not drawn)	7	6
CCN1CCCC(NC(=O)c2cc3ccccc3c3cccnc23)C1 (stereo not drawn)	0	0
O=C(ON=Cc1cccc([N+](=O)[O-])c1)C1CCN(S(=O)(=O)c2ccc(Cl)cc2)CC1	-7	-8
C=CCN(Cc1ccccc1OCC)C(=O)c1cnc2cccc(C)n2c1=O	14	0
O=C(CSCc1ccccc1Cl)N1CCN(c2cnccn2)CC1	6	-6

A draw from above in order of heavy-atom count, largest number first:
compound	NPYLR7 agonist	NPYLR7 agonist max-min
Cc1nc2ccc(C(=O)N3CCN(C(=O)c4ccco4)CC3)cn2c1N(C)C(=O)CCc1ccccc1	-3	18
CCN1C(=O)N(C2Cc3ccccc3C2)C(=O)C12CCN(Cc1cnc(-c3ccccc3)s1)CC2	10	-4
Cc1c(C(=O)CSc2n[nH]c(=O)n2C2CC2)sc2ccccc12	2	0

Other records follow:
compound	NPYLR7 agonist	NPYLR7 agonist max-min
CCOC(=O)c1nc2ccccc2nc1N1CCN(S(=O)(=O)c2cccc(C#N)c2)CC1	4	4
CN1C(=C2C=NN(C)P2(=Nc2ccccc2[N+](=O)[O-])N2CCOCC2)C(C)(C)c2ccccc21 (stereo not drawn)	1	16
[O-][n+]1c2c(nn1-c1ccccc1)/C(=N\O)CCC2	-12	-17
N#Cc1c(N2CCOCC2)n[nH]c1N	0	-3
CCOC(=O)c1sc(N)c(C#N)c1COC(=O)C1CSC2(C)CCC(=O)N12 (stereo not drawn)	4	8
Cc1ccc(OS(=O)(=O)c2ccc3c(c2)OCCO3)c2c1C(C)CC2=O (stereo not drawn)	12	7
COc1cc(Br)c(S(=O)(=O)NNC(=O)c2cc3c(s2)CCC3)cc1OC	0	8
C=CCCOC(=O)N1CCC(OC)c2ccccc2N(CC(=O)OCC)C(=O)C1 (stereo not drawn)	2	1
COCC(C)(C)CNC(=O)c1c(F)cccc1OC	2	2
CC(C)c1cc(C2CCN(C(=O)CCN3CCCCO3)CC2)[nH]n1	12	9
CCOc1ccc2ccccc2c1CNc1nn[nH]n1	-12	-20
O=C(Cn1cnc2cc(F)ccc2c1=O)N1CCNC1=O	9	3
C1CCC(c2nc(CNC3CSCCSC3)no2)C1	3	0
CCC(=O)N(C)c1ccccc1C(=O)Nc1ccc(OC)c(Cl)c1	7	2
CC(C)CCNC(=O)c1c(O)nc2sccn2c1=O	-1	13
CC1CNCCN1S(=O)(=O)c1cccc2cnccc12 (stereo not drawn)	5	-23
N#Cc1cccc(OCCCCC(=O)N2CCOC3CCCCC32)c1 (stereo not drawn)	-4	-5
CCCN(C)c1nccn2c(=O)n(CC(=O)Nc3ccc(F)cc3)nc12	-8	-7
C=CCn1c(SCc2ccc(C(=O)OC)o2)nnc1-c1cc(OC)cc(OC)c1	5	6
O=C(CCN(Cc1ccccc1)c1nc(Cc2ccccc2)ns1)N1CCN(c2ccccc2F)CC1	-1	11
N#CCc1cc(Cl)c2c(c1)OCCO2	5	8
Cc1ccc2nc(-c3ccc4c(c3)OCO4)c(NC(C)(C)CC(C)(C)C)n2c1	-4	-3
Cc1cc(Cl)ccc1C(=O)C1CCCN(C(=O)C2=CCCC2)C1 (stereo not drawn)	0	-1
O=S(=O)(c1ccc(F)c(Cl)c1)N1CCC(Cc2ccc3c(c2)OCO3)CC1	3	1
Cc1ncc([N+](=O)[O-])n1CCNC(=O)[C@@H]1c2ccccc2C(=O)N(C(C)C)[C@H]1c1ccccc1	4	3
Cc1[nH]c(=O)[nH]c(=S)c1C#N	0	-2
COc1cc2c(cc1OC)C(c1ccccc1Cl)N(C(=O)c1c(-c3ccccc3)noc1C)CC2 (stereo not drawn)	-6	2
COC(=O)c1ccc(CN2CCC3(CC2)OCCCO3)o1	-3	-9
CSCCC(C)N(C)S(=O)(=O)c1cnc(C(C)C)[nH]1 (stereo not drawn)	10	8
COc1ccc(C(=O)C2CCCN(Cc3cnc(-c4cccc(C)c4)nc3)C2)c(OC)c1 (stereo not drawn)	15	2

Screens: PubChem BioAssay, Fisher Drug Discovery Resource Center
